gsp antag – antagonizes gsp, the McCune-Albright syndrome mutation; gsp-mutant cells, cAMP HTRF, 30 min; control for the full effect not named in the record; Potency, µM (top dose mostly 76.9 µM), inactives show at the highest dose activity change, negative = inhibition, most hits filed as inhibitors; 340,000 compounds, 0.4% hits; AID 624288; active = falling curve of any shape with a large fitted effect; inconclusive = falling curve, mostly with a smaller effect; inactive = flat or rising curve; cell line not stated here;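 further: intracellular cAMP measured with PDE inhibitor Ro 20-1724 present during compound exposure; potency means the concentration at half of the fitted maximal effect; on the % scale 0 is the no-effect control and ±100 the full control effect; nearly all actives have a fitted effect of over 65% in size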
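Cells, 2000/well, grown 16–24 h in DMEM 10% FBS with 0.5 mg/ml G418, then compounds plus […] (300 uM addition stock), 30 min at 37C. cAMP read by HTRF (cAMP-d2 and anti-cAMP antibody-K in lysis buffer) after 30 min RT.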
TRPML1 agonist – agonists of human TRPML1 channel. TRPML1-expressing cells, Ca2+ dye fluorescence, FDSS; host cell line not named in the record; reference of the full effect not given here. 410,000 compounds, 0.12% hits. activation, % (test concentration not listed). Q9GZU1; in the data active = activation above about 50%; inconclusive = about 30% to 50%; inactive = below about 30%; further: 0% is about no effect; the text of the record puts the active cut at 80%
Target sequence (Q9GZU1 whole entry, looked up): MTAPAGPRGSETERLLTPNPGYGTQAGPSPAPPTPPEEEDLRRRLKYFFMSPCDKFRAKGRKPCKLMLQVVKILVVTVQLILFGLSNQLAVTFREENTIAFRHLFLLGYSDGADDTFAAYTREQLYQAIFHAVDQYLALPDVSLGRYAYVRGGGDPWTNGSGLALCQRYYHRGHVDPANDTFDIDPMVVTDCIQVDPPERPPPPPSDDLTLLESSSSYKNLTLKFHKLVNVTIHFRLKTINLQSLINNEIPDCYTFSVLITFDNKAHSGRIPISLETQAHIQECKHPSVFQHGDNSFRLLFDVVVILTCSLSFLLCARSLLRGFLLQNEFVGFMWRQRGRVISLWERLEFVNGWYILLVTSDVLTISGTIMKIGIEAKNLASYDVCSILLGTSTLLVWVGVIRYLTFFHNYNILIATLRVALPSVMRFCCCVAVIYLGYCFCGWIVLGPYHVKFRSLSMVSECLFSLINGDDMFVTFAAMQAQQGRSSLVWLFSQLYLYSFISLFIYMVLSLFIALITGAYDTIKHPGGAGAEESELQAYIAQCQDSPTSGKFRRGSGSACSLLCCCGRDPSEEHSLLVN
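Calcium fluorescence on an FDSS kinetic reader gave the read-out. Tet-induced TRPML1-DL cells were plated overnight, dye-loaded (Ca8 with quencher, 45-90 min, room temperature, dark), then read 110 s after compound addition, and again 110 s after 4uM final 54-4 (EC80).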
Menin MLL FP FL – inhibitors of human menin-MLL interaction, wild-type MLL peptide; Fluorescence polarization, fluorescein-MLL peptide displacement from menin; FP activity change, % at 61.4 µM; 290,000 tested, under 10 active; AID 1766; inconclusive = falling polarisation curve, or a change in total fluorescence; inactive = total fluorescence flat and polarisation flat or rising; no compound was filed as active; the % refers to the polarisation; negative = inhibition;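 further: % of control where 0% means no effect; inhibitors lower the polarisation; unlabelled MLL peptide was the positive control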
ClpP mod – qHTS Assay for Activators of ClpP; ATP-dependent Clp protease proteolytic subunit (Bacillus subtilis (strain 168)), P80244; purified B. subtilis ClpP, FRET peptide cleavage, 20 min; Potency, µM (titrated, usually from 57.5 µM), for the others: at the top dose activity change, negative = active; 340,000 compounds, 1.9% hits; active = well fitted falling curve with a large enough effect; inconclusive = small, poorly fitted or top-dose-only effect; inactive = no such curve, though single readings can be large or run the other way; further: potency means the concentration at half of the fitted maximal effect; the source files actives as falling curves though it sought activators and does not explain the sign; nearly all actives have a fitted effect of over 65% in size; many hits overshoot -100%
Target sequence (P80244 whole entry, looked up): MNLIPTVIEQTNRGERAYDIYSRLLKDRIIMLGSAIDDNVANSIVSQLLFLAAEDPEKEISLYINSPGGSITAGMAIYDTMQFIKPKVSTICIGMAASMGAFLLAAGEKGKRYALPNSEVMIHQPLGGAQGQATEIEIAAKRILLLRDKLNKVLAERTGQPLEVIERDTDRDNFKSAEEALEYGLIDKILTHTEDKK
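FRET quenching reversal measured ClpP activation: 10 microg/mL B. subtilis ClpP at pH 8 with the FRET-FV decapeptide, read at 430 nm after 320 nm excitation. The 20-min minus 0-min signal was scaled between DMSO/no-enzyme wells and ADEP (5.8 microM final).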
TRPML1 inh – human mucolipin-1 channel inhibition. Q9GZU1. TRPML1-inducible cells, Ca2+ dye fluorescence, FDSS; active compounds read low; inhibition of EC80 agonist-evoked calcium signal. activity change, negative = inhibition, % (test concentration not listed). 390,000 compounds, 0.02% hits. AID 624415; in the data active means activity change below about -50%; inconclusive means about -30% to -50%; inactive means above about -30%;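 further: stimulus is agonist 54-4 at its EC80 concentration; on the % scale 0 is the no-effect control and ±100 the full control effect; compound concentration not given in the record; the text of the record puts the active cut at -80%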
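Calcium fluorescence in TRPML1-DL cells induced overnight with Tet: a 110 s read after compound pin addition, then a 110 s antagonist read after challenge with 54-4 at 4 uM final (EC80).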
gsp ag – agonists of gsp mutant (McCune-Albright syndrome); 340,000 compounds, 0.13% hits; AID 624287; gsp mutant cells, cAMP HTRF, 30 min; control for the full effect not named in the record; Potency, µM (titrated, usually from 76.9 µM), without a hit: at the highest dose activation (cAMP increase), hits mostly activators; active = well fitted activation curve with a large enough effect; inconclusive = small, poorly fitted or top-dose-only effect, or another doubt; inactive = no such curve, though single readings can be large or run the other way; cell line not stated here;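 further: phosphodiesterase inhibitor Ro 20-1724 added with compounds to block cAMP breakdown; potency means the concentration at half of the fitted maximal effect; nearly all actives have a fitted effect of over 60% in size; about a fifth of the inactives were tested at one dose only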
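Cells stably selected in G418 were plated at 2000/well, grown 16-24 hr, then given compounds in DMSO with the PDE inhibitor […] (300 uM solution added) for 30 min at 37C; cAMP was read by HTRF.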
Starred values were filed as active, the others as inactive; ? = inconclusive; . = not tested or not shown; & = joins results of further samples; [ ] = remark or other dose.

smiles | gsp antag | TRPML1 agonist | Menin MLL FP FL | ClpP mod | TRPML1 inh | gsp ag
c1cnc2c(SCc3ccc(-c4nnco4)cc3)cccc2c1 | 5% | 0.9 | 0.7 | ? | -11 | -41%[inhibitor]
COC(=O)CN1C(=O)CC(C)(C)Sc2ccccc21 | 5% | -0.3 | 4.7 | -0.4% | -4 | -16%
COc1ccccc1N1C(=NC(=O)COc2ccccc2)SC2CS(=O)(=O)CC21 (configuration not stated) | 4% | -0.2 | . | 0.8% | 6 | -26%
COCCN1Cc2cccc(C(=O)NC3CCCCCC3)c2C1=O | 1% | 1.3 | 0.3 | 1.2% | -8 | -12%
CCOC(=O)C1(Cc2ccccc2C(F)(F)F)CCN(C(=O)c2cc(C(C)=O)n[nH]2)CC1 | -11% | -0.2 | 0.3 | . | 27 | 10%[15.4 µM]
CC(C)(C)C(=O)Nc1ccccc1C(=O)Nc1cc(Cl)ccc1Cl | -1% | 7.7 | -3.0 | -2.7% | 19 | 0%
Cc1cc(C)c(S(=O)(=O)NCCc2cc3ccc(C)cc3[nH]c2=O)c(C)c1 | . | -1.0 | . | ? | 6 | .
CCCCN(C)C(=O)c1cn(C)c2ccc(S(=O)(=O)N3CCC(C)CC3)cc2c1=O | 1% | 0.3&-0.9 | -0.2 | -1.1%&-4.4% | -6&-3 | -10%
CC(=O)Nc1nnc(SCc2cccc(F)c2)s1 | 8% | -0.8 | 1.7 | 2.2% | -2 | -45%[inhibitor]
CCC1(c2ccc(F)cc2)NC(=O)N(CC(=O)N2CCN(S(=O)(=O)c3ccc(C)cc3C)CC2)C1=O (configuration not stated) | -10% | 1.0 | . | -0.2% | -2 | 15%
Cc1ccc(C(=O)N2NC(c3ccc(F)cc3)C3C(=O)N(c4ccc(C)cc4)C(=O)C32)cc1 (configuration not stated) | 3% | 0.1 | 7.1 | -0.4% | 9 | -25%
Cc1ccc(C(NC(=O)C2CCCCC2)c2c(O)ccc3ccccc23)cc1 (configuration not stated) | -21% | 2.9 | -1.6 | ? | 13 | 0%
C=CCc1ccccc1OCC(O)CN1CCOCC1 (configuration not stated) | 5% | 1.7 | . | . | 0 | -46%[15.4 µM]
N#CC1(c2ccccc2)CCC(=NNS(=O)(=O)c2ccccc2)CC1 (configuration not stated) | -17% | 0.4 | . | 1.0% | -8 | 1%
O=[N+]([O-])c1ccc(O)c(/C=N/Nc2ccccn2)c1 | 10% | 3.8 | 0.7 | -4.1% | -2 | 16%
CC1CN(C(=S)NC(=O)C2CCCCC2)CC(C)O1 (configuration not stated) | 7% | -0.5 | 4.6 | -9.7% | -3 | -6%
Cc1c(Cl)cccc1NC(=O)NCc1cccnc1 | 11% | 0.7 | -1.0 | 1.5% | -14 | -30%
O=S(=O)(Nc1ncccn1)c1ccc(NC(=S)N2CCN(Cc3ccc(F)cc3Cl)CC2)cc1 | -24% | -0.6 | 0.6 | 0.9% | -2 | 12%[15.4 µM]
C=CCOC1COC2C(OCC=C)COC12 (configuration not stated) | -2% | -0.3 | . | -4.6% | -4 | 4%[15.4 µM]
C(=N\N1CCN(C2c3ccccc3-c3ccccc32)CC1)/c1ccccn1 | -4% | 2.2 | 1.4 | -2.5% | -4 | -33%[inhibitor]
Cc1ccc(C(=O)N2CCC(C(=O)c3c(C)cc(C)cc3C)CC2)cc1 | -14% | . | 0.3 | 0.0% | . | 12%
COc1ccc2nc(N(CCN(C)C)C(=O)c3ccc4ncsc4c3)sc2c1 | . | -0.4 | . | -0.5% | 9 | 4%
COC(CN1C(=O)C(O)=C(C(C)=O)C1c1ccccn1)OC (configuration not stated) | 17% | -0.5 | 1.4 | -3.7% | 14 | 20%
CO[C@H]1C[C@@H]2CC[C@@H](C)[C@@](O)(O2)C(=O)C(=O)N2CCCC[C@H]2C(=O)O[C@H]([C@H](C)C[C@@H]2CC[C@@H](O)[C@H](OC)C2)CC(=O)[C@H](C)/C=C(\C)[C@@H](O)[C@@H](OC)C(=O)[C@H](C)C[C@H](C)/C=C/C=C/C=C/1C | . | -0.4 | -0.7 | -1.2% | . | .
CCC(O)(CC)C(=O)N=Nc1c(O)[nH]c2ccccc12 | 6% | -0.3 | 2.1 | -8.8% | 12 | 5%[15.4 µM]
COc1ccc(NC(=O)CN(c2ccccc2F)S(=O)(=O)c2ccc(C)cc2)c(OC)c1 | ? | 1.0 | -1.1 | 1.9% | -3 | -34%[inhibitor]
O=C(c1ccc(-n2cncn2)c([N+](=O)[O-])c1)N1CCN(S(=O)(=O)c2cccc(F)c2)CC1 | -12% | -0.5 | . | -0.9% | 2 | -1%
CN(C)/C=N/c1sc2c(c1C#N)CCC2 | 3% | 1.4 | 3.2 | -2.2% | 0 | -56%[inhibitor]
c1ccc2c(NCC3CCCO3)nc(N3CCOCC3)nc2c1 (configuration not stated) | 0% | 0.2 | 0.3 | 3.4% | -3 | 0%
CCOc1ccccc1NC(=O)c1cc(-c2cc(OC)c(OC)c(OC)c2)nc2ccccc12 | -12% | 1.1 | 3.3 | . | 24 | 0%[15.4 µM]
O=C(Nc1ccnc(-c2ccncc2)n1)c1ccc(Cl)cc1 | 16% | 0.4 | 3.1 | 1.9% | 8 | 5%
CCOC(=O)Cc1csc(NC(=O)CSc2nnnn2-c2ccc(F)cc2)n1 | -12% | -0.1 | 2.3 | -1.7% | 2 | -59%[inhibitor]
O=S(=O)(c1ccc2ccccc2c1)N1CCN(S(=O)(=O)N2CCCCC2)CC1 | 4% | 2.0 | 0.4 | -0.2% | 17 | 2%
O=C(N/N=C/C=C/c1ccccc1[N+](=O)[O-])c1cccnc1 | 12% | 1.3 | -4.9 | . | 3 | -8%[15.4 µM]
COC(=O)C(NC(=O)CCC(=O)N[C@@H](C(=O)OC)c1ccccc1)c1ccccc1 (some centres not stated) | 8% | -0.7 | 0.4 | -4.1% | -5 | .
COC(C#CCCN(C)C)(c1ccccc1)c1ccccc1 | 0% | 1.0 | -1.8 | 2.3% | -18 | 2%
CSCC[C@H](NC(=O)c1nn(C)c(=O)c2ccccc12)c1nc2ccccc2[nH]1 | 0% | 0.1 | -2.3 | -0.3% | 0 | 12%
C[C@@H]1CN([C@@H](C)CO)C(=O)CCCn2cc(nn2)CO[C@H]1CN(C)S(=O)(=O)c1cn(C)cn1 | . | 0.1 | . | -1.6% | -2 | -62%[inhibitor]
O=S(=O)(Nc1ccc(OC(F)F)cc1)c1ccc(-c2ccon2)s1 | -15% | 1.0 | 6.9 | . | 31 | 9%
O=C(Nc1cccc(-c2cn3ccccc3n2)c1)c1cnccn1 | -4% | -0.6 | -0.2 | -2.3% | -3 | -48%[inhibitor]
COc1ccc2c(c1)[nH]c(=O)c1sc3ccccc3c12 | -2% | -0.4 | 1.5 | -29% | -22 | 7%
O=C(OCCCOC(=O)c1ccc(Br)o1)c1ccc(Br)o1 | 14% | 0.8 | . | -3.5% | -1 | -31%[inhibitor]
C[C@@H]1CCCCO[C@H](CN(C)Cc2ccc(C(F)(F)F)cc2)[C@H](C)CN([C@@H](C)CO)C(=O)c2cc(NC(=O)Cc3ccccc3)ccc2O1 | . | -0.3 | . | -0.8% | 21 | -62%[inhibitor]
Cc1cc(C(C)(C)C)ccc1OCCN1CCCC1 | -1% | -0.7 | -0.6 | -1.0% | 3 | 4%
O=C(C(=O)N1CCc2ccccc2C1)c1c[nH]c2ccccc12 | -5% | 1.1 | 0.5 | -0.7% | -8 | 10%
Cc1ccc(/C=C/S(=O)(=O)NCC(=O)O)cc1 | . | -0.1 | -3.0 | . | 28 | 14%[15.4 µM]
O=C(Nc1cccnc1)OC1CCCCC1 | 12% | 0.6 | -1.9 | . | 9 | 22%[15.4 µM]
C=CCn1c(C)cc(C(=O)CN2NS(=O)(=O)c3ccccc3C2=O)c1C | -9% | 2.1 | 0.5 | -0.3% | -7 | -49%[inhibitor]
Clc1nnc2c3ccccc3ccn12 | -1% | 0.7 | . | -3.0% | -1 | ?
COc1ccccc1NC(=O)C1=C(C)Nc2nc3ccccc3n2C1c1cccc(OC)c1OC (configuration not stated) | . | -0.9 | . | -0.8% | -6 | .
COc1cccc(NC(=S)N(CCN(C)C)Cc2cccs2)c1 | -1% | 0.4 | -1.7 | . | -17 | 6%[15.4 µM]
O=C(c1cc2sccc2n1Cc1ccccc1)N1CCCc2ccccc21 | -17% | 0.5 | 2.7 | -2.1% | 43 | 7%
CCOC(=O)C1=C(CSc2nc3c(cc2C#N)CN(C)CC3)OC(N)=C(C#N)C1c1ccc(Cl)cc1 (configuration not stated) | 4% | 1.5 | ? | -12% | -7 | 5%
CCN1CCCC1CN(Cc1cc2ccc(C)cc2[nH]c1=O)C(=S)Nc1ccc(OC)cc1OC (configuration not stated) | 4% | 0.2 | 0.0 | -1.8% | 2 | -11%[15.4 µM]
C[C@@H](C(=O)Nc1ccc2ccccc2c1)[C@H]1C[C@]1(C)[C@H](NS(=O)(=O)c1ccccc1)c1ccccc1 | 1% | 0.8 | -0.3&5.4 | -6.5% | 56 | 22%
Cc1ccc(NC(=O)c2ccc3c(O)c(S(=O)(=O)c4ccc(Cl)cc4)c(=O)[nH]c3c2)cc1 | . | 1.0 | . | 1.7% | -25 | .
CC1(c2ccccc2)NC(=O)N(CC(=O)N2CCN(S(=O)(=O)c3cccc([N+](=O)[O-])c3)CC2)C1=O (configuration not stated) | 1% | -0.7 | . | -0.4% | -1 | 2%

Random excerpt: 4 entries already listed.
smiles | gsp antag | TRPML1 agonist | Menin MLL FP FL | ClpP mod | TRPML1 inh | gsp ag
COc1ccccc1NC(=O)C1=C(C)Nc2nc3ccccc3n2C1c1cccc(OC)c1OC (configuration not stated) | . | -0.9 | . | -0.8% | -6 | .
CCOC(=O)C1=C(CSc2nc3c(cc2C#N)CN(C)CC3)OC(N)=C(C#N)C1c1ccc(Cl)cc1 (configuration not stated) | 4% | 1.5 | ? | -12% | -7 | 5%
CSCC[C@H](NC(=O)c1nn(C)c(=O)c2ccccc12)c1nc2ccccc2[nH]1 | 0% | 0.1 | -2.3 | -0.3% | 0 | 12%
CC(=O)Nc1nnc(SCc2cccc(F)c2)s1 | 8% | -0.8 | 1.7 | 2.2% | -2 | -45%[inhibitor]

Source: PubChem
